# TRPML1 agonist: activates the human TRPML1 channel; 0.12% of 410,000 active; TRPML1-expressing cells, Ca2+ dye fluorescence, FDSS; host cell line not named in the record; reference of the full effect not given here; Q9GZU1; AID 624414; activation, % (no concentration beside the values); in the data active = activation above about 50%; inconclusive = about 30% to 50%; inactive = below about 30%; also: 0% is about no effect; the text of the record puts the active cut at 80%
# Target sequence (Q9GZU1 whole entry, looked up): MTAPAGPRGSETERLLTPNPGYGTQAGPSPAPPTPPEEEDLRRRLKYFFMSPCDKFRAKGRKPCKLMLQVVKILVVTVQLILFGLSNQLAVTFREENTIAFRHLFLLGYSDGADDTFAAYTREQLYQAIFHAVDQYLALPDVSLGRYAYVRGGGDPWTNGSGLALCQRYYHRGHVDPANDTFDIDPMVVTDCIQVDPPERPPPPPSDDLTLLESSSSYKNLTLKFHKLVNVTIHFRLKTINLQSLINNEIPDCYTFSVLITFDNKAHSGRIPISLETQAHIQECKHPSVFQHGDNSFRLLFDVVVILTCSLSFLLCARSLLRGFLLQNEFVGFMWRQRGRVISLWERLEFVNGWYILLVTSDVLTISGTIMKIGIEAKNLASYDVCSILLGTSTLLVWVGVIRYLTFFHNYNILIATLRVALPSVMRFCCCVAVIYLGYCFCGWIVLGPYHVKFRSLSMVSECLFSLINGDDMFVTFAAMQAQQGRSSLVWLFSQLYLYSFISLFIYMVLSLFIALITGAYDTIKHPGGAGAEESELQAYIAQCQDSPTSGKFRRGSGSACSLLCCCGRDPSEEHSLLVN
#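 Agonist activity was taken from a 110 s kinetic Ca2+ dye read on the FDSS after pinning compounds onto TRPML1-DL cells. The cells were seeded at 1,500/well with Tet inducer, incubated about 16 h, then dye-loaded at room temperature.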
# D2 ag: activates the human D2 dopamine receptor; P14416; activation, % (concentration not given with the values); AID 624465; DiscoveRx PathHunter D2 beta-arrestin, luminescence, 90 min; 100% = 57 uM dopamine signal; 0.084% of 360,000 active; in the data active = activation above about 40%; inconclusive = about 15% to 40%; inactive = below about 15%; also: compound concentration not given in the record; the text of the record calls up to 30% inactive
# Target sequence (P14416 whole entry, looked up): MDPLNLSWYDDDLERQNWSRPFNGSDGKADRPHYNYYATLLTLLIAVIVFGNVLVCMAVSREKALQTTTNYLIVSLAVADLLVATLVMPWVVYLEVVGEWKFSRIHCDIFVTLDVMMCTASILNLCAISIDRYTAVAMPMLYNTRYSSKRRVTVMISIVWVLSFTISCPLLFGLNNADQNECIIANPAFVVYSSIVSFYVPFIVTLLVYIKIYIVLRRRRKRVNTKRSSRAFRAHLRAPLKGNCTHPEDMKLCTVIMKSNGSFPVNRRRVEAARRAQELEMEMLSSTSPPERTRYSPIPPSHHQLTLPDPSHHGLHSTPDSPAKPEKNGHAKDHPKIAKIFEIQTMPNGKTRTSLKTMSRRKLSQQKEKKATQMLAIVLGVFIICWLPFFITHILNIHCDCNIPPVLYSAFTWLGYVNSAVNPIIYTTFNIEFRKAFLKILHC
#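 Agonist mode: compounds alone added to overnight-plated D2 PathHunter cells for 90 min at 37 C, with 57 uM final dopamine (EC100) defining full response. Beta-arrestin recruitment detected by chemiluminescent reagent, read after 1 h at ambient temperature.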
# Six1-Eya2 inh: inhibitors of human Six1/Eya2 interaction; Q15475+O00167; AID 651725; 0.56% of 360,000 active; activity change, % (test concentration not listed); AlphaScreen GST-Six1/His-Eya2 binding, biochemical; active compounds read low; control for the full effect not named in the record; in the data active = activity change below about -65%; inconclusive = about -30% to -65%; inactive = above about -30%; also: % is scaled to controls: 0 for no effect and ±100 for the full control effect
#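 Compounds are tested against tagged Six1 and Eya2 proteins bridged by glutathione donor and nickel acceptor beads; after a one-hour incubation at 37 °C without light, AlphaScreen emission is recorded.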
# PINK1 modulator: changes PINK1 expression. PINK1 immunofluorescence, high-content cytometry, 24 h. Potency, µM (series often up to 76.6 µM), for the others: at the highest dose activation (PINK1 increase), actives largely listed as activators. 0.2% of 410,000 active; active = well fitted activation curve with a large enough effect; inconclusive = small, poorly fitted or top-dose-only effect; inactive = flat fitted curve, though single readings scatter; cell line not stated here;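 also: potency is read from the fitted curve at half-maximal effect; % of control where 0% means no effect; nearly all actives have a fitted effect of over 65% in size; a mitochondrial uncoupler was the plate control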
#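 PINK1 protein, normally rapidly degraded, was detected by immunofluorescence after 24 hour compound treatment of a stable cell line. Titration data (5 concentrations) came from laser-scanning cytometry, with CCCP-treated wells as controls.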
# CtBP-E1A inh: blocks the CtBP interaction with E1A; AID 651724; AlphaScreen GST-E1A/His-CtBP binding, 1536-well; active compounds read low; control for the full effect not named in the record; 0.49% of 340,000 active; activity change, % (concentration not given with the values); in the data active means activity change below about -65%; inconclusive means about -30% to -65%; inactive means above about -30%; also: % is scaled to controls: 0 for no effect and ±100 for the full control effect
#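 In 5 uL wells, 23 nL compound meets equimolar GST-E1A and His-CtBP (5X stock 125 nM each) for 2 h, 37 °C. Beads (5X, 50 ug/mL) then 1 h, 37 °C, dark.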
# TRPML1 blocker: blocks the human TRPML1 channel; activity change, negative = inhibition, % (no concentration beside the values); TRPML1-inducible cells, Ca2+ dye fluorescence, FDSS; active compounds read low; inhibition of EC80 agonist-evoked calcium signal; Q9GZU1; 0.02% of 390,000 active; AID 624415; in the data active means activity change below about -50%; inconclusive means about -30% to -50%; inactive means above about -30%;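 also: stimulus is agonist 54-4 at its EC80 concentration; % is scaled to controls: 0 for no effect and ±100 for the full control effect; compound concentration not given in the record; the text of the record puts the active cut at -80%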
#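 Tet-induced TRPML1-DL cells loaded with Ca8 no-wash calcium dye were read kinetically on FDSS. Compound addition was followed by EC80 agonist 54-4 (4 uM final); inhibition was read over 110 s.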
# Active calls of the source: *; ? = inconclusive; / = not tested or not shown; [ ] = dose if it differs, or a comment. An unsorted share of the library; 1% or so of the library scored in one or more.
SMILES,TRPML1 agonist,D2 ag,Six1-Eya2 inh,PINK1 modulator,CtBP-E1A inh,TRPML1 blocker
O=C(O)c1ccc(N2C(=O)C3ON(c4ccccc4)C(c4ccccc4F)C3C2=O)cc1 (stereo not drawn),-0.4,4.6,13,2.0%,6,13
C=CCn1c(SCC(=O)NCCCC(=O)OCC)nc2scc(-c3ccco3)c2c1=O,0.5,6.0,1,4.1%,9,2
COc1ccc(Cl)cc1N1C(=O)c2cccnc2C1=O,0.3,5.9,-6,4.5%,/,9
Cc1ccc(/C(N)=N/OC(=O)N2CCOCC2)cc1,-0.3,-0.6,4,/,8,-6
CC(C)(O)C#Cc1ccc(C(=O)NCCc2ccc(S(N)(=O)=O)cc2)cc1,-0.4,9.0,0,4.0%,7,-1
CN(Cc1ccccc1)C(=O)CC(c1ccccc1)c1cc(Cl)ccc1O (stereo not drawn),0.5,-1.4,-7,-1.4%,5,28
O=C(COC(=O)c1cc2c(s1)CCCC2)Nc1ccc(Cl)cn1,5.1,0.9,3,8.0%,0,11
O=C(Cn1cnc2c(cnn2-c2ccc(Cl)cc2)c1=O)NCC1CCCO1 (stereo not drawn),0.2,-2.9,-1,1.5%,3,0
Cc1ccccc1CSc1ccc(S(=O)(=O)N2CCCC2)cn1,1.9,-0.9,14,1.5%,7,9
Cc1ccc(C(=O)CC(C(=O)O)n2cccn2)cc1 (stereo not drawn),-0.5,-0.6,6,0.0%,10,-18
COc1ccc(NC(=O)CN(C)C(=O)C(C)N2C(=O)c3ccccc3C2=O)cc1 (stereo not drawn),0.0,-0.4,11,1.1%,5,18
CCOCCCNC(=O)c1ccc(NC(=O)C2CCCO2)cc1 (stereo not drawn),0.4,-1.2,-4,-3.4%,-1,-19
O=C(NCCc1ccc(F)cc1)c1ccc(S(=O)(=O)N2CCCCC2)cc1,-0.2,2.0,1,4.4%,1,18
CN(C)S(=O)(=O)c1ccc(C(=O)NCc2ccc3[nH]c4c(c3c2)CCCC4)cc1,0.8,-1.3,-19,1.5%,-1,-4
NC(=O)NC(Cc1ccccc1)C(=O)Nc1ccc(S(N)(=O)=O)cc1 (stereo not drawn),0.9,-2.5,-1,1.6%,2,7
CS(=O)(=O)N1N=C(c2cccs2)CC1c1ccco1 (stereo not drawn),0.0,-3.6,-2,-0.9%,-8,57
Cc1csc2nc(O)c(C(=O)NCc3ccc4c(c3)OCO4)c(=O)n12,2.0,1.9,6,2.2%,0,8
COC(=O)c1ccc(N2CCOCC2)c(NC(=O)c2cc3ccccc3o2)c1,-0.6,-4.5,-14,-1.7%,-5,-11
O=C(COC(=O)CN1C(=O)c2ccccc2C1=O)Nc1ccc(S(=O)(=O)N2CCCC2)cc1,0.2,-1.8,-2,1.1%,8,-8
CCCN(CC(=O)Nc1cc(Cl)cc(Cl)c1)CC(=O)Nc1ccc(F)c(F)c1F,-0.1,-0.4,-2,?,6,-5
C#CCOCCOCCOCCNc1nc(N2CCN(C(=O)CCCCCCCCCCNC(=O)[C@H]([C@@H](C)CC)n3cc(CCCCCN)nn3)CC2)nc(N2CCN(C(=O)CCCCCCCCCCNC(=O)[C@@H]([C@H](C)O)n3cc(C)nn3)CC2)n1,-0.6,4.8,2,-1.3%,-9,0
CCCCOC(=O)Nc1ccccc1C(N)=O,0.5,0.6,5,-2.6%[38.3 µM],5,-7
CCc1cccc2c(C(=O)CN3C(=O)NC(C)(c4cccc5ccccc45)C3=O)c[nH]c12 (stereo not drawn),0.0,-0.6,-1,0.2%,1,22
COc1cc2cc(C(=O)NC(C)c3cccc4ccccc34)c(N)nc2cc1OC (stereo not drawn),-1.0,/,22,-0.6%,-14,/
Cn1c(=O)[nH]c(=O)c2c1nc(SCC(=O)O)n2Cc1ccccc1,-0.6,1.2,-4,-0.2%,/,23
O=C1C(=O)N(Cc2ccco2)C(c2cccs2)/C1=C(\O)c1cccc([N+](=O)[O-])c1 (stereo not drawn),0.5,2.1,-2,0.1%,/,-12
O=[N+]([O-])c1cc(-c2nc(-c3ccccc3)no2)ccc1N1CCN(c2ccccc2)CC1,-0.8,/,/,0.6%,/,-25
COC(=O)c1sc2cccc(F)c2c1S(=O)(=O)N1CCN(c2ccc(C)cc2C)CC1,0.1,/,/,-0.3%,/,17
COc1cccc(CN(C)C(=O)C(CCSC)NS(=O)(=O)c2ccc3c(c2)OCCO3)c1OC (stereo not drawn),-1.0,-1.6,-9,-0.8%,-4,-4
COc1cccc(C2CCCN2Cc2nc(CC3CC3)no2)c1 (stereo not drawn),-0.5,-3.0,7,1.9%,-2,5
COc1ccc(-c2nnn(CC#N)n2)cc1OC,-0.6,-1.5,-2,1.0%,-1,-24
CCCNC(=O)N1c2ccccc2Sc2ccccc21,-0.4,-3.7,-9,3.3%,11,8
Cc1ccc(S(=O)(=O)N2CCC(C(=O)Nc3cc(C)ccc3C)CC2)cc1,-0.8,/,/,1.3%,/,4
Cc1cc(C=O)c(C)n1-c1cc(C(F)(F)F)ccc1N1CCOCC1,0.1,-0.3,17,0.9%,13,-5
CC(C)CNC(=O)c1cccc(NC(=O)c2ccco2)c1,0.4,-0.8,5,/,1,1
Cc1cc(C)cc(OCC(=O)O/N=C(\N)c2ccccn2)c1,1.7,0.8,3,1.3%,4,10
Cn1cc(C(=O)C(=O)N2CCCCC2)c2ccccc21,0.3,-3.0,19,1.1%,2,-2
CCOC(=O)c1c(C)nc2c(c1-c1ccccc1)C(=O)c1ccccc1-2,3.0,-0.1,-8,9.0%[38.3 µM],-6,3
CCOc1ccc(-n2c(SCC(=O)Nc3ccc4c(c3)OCO4)nc3c(c2=O)SCC3)cc1,0.4,-3.1,-10,3.5%,-2,-3
NC(=O)CCN(Cc1ccccc1)S(=O)(=O)c1ccccc1,-0.7,0.2,3,0.7%[38.3 µM],-3,-2
O=S1(=O)N=C(N=Nc2c(O)[nH]c3ccccc23)c2ccccc21,0.7,-15,?,0.9%,/,-13
CC1=C(C(=O)N(C(C)C)C(C)C)CC(CC(=O)NCCc2ccccn2)C(=O)N1CCC1=CCCCC1 (stereo not drawn),-0.5,-2.3,23,1.2%,23,/
CC(=O)c1c(C)c(C)c2n1CCn1c(C)ccc1-2,1.4,-0.7,-2,-0.6%,/,-10
O=C(COc1ncnc2scc(-c3ccccc3)c12)NC1CCCc2ccccc21 (stereo not drawn),-0.9,-4.2,3,2.7%,-9,-12
Cc1cc(=O)n2cc(-c3ccccc3)nc2[nH]1,-0.6,-2.6,3,/,4,0
COCCOC(=O)C1=C(C)NC(=O)NC1/C=C/c1ccccc1 (stereo not drawn),-0.1,-3.1,-1,0.9%,4,12
Cc1ccc(C(=O)Nc2ccc(CC(=O)O)cc2)o1,-0.5,1.1,-2,1.0%,9,15
C=CCn1c(Cc2c[nH]c3ccccc23)n[nH]c1=S,-0.3,3.4,0,-3.5%[38.3 µM],11,4
Cc1ccc(-n2nc3cc(C)c(NC(=S)NC(=O)/C=C/c4ccco4)cc3n2)cc1,-0.4,-1.2,3,21%,1,40
CNc1ccc(C2(O)C(=O)c3ccccc3C2=O)cc1,0.3,-3.1,0,-0.7%,0,6
Cc1ccc(CN(C)C(=O)c2cc(S(=O)(=O)N3CCOCC3)ccc2F)o1,1.0,-0.4,6,0.8%,-18,-1
Cc1ccc(-c2csc3ncn(Cc4ccc(C(=O)O)cc4)c(=O)c23)cc1C,3.6,-0.7,-4,2.5%,-7,-2
CCCOc1ccc(Cc2c(O)nc(N)[nH]c2=O)cc1C,0.5,0.4,-5,-0.4%,/,-24
CS(=O)(=O)Cc1cccc(C(=O)NN(c2ccccc2)c2ccccc2)c1,-1.2,3.2,4,0.1%,14,-13
CCCN1CCN(C(=O)C(C)n2nc(C)c3sc4ccccc4c3c2=O)CC1 (stereo not drawn),-0.4,-1.0,-4,-1.0%,3,1
O=C(Nc1ccccc1Cl)N1CCC(CN2CCCC2)CC1,1.9,/,/,-1.1%,/,-6
Cc1ccc(-c2nn3c(C)nnc3s2)cc1NC(=O)c1ccc(Br)o1,0.6,1.7,-2,0.8%,2,-1
CCOC(=O)c1sc(=S)n2c1[nH]c(=O)c1ccc(C(=O)OC)cc12,0.4,-0.7,6,0.2%,2,-10
CCCCC(CCC(=O)Nc1ccc(C(=O)OC)cc1)C(=O)O (stereo not drawn),-0.3,-1.6,6,-1.6%,0,9
CCCn1cc(S(=O)(=O)c2ccccc2)c(=O)c2cc(F)c(N3CCN(C)CC3)cc21,-0.2,-3.0,4,0.6%,8,22

# A second format for six compounds above.
smiles	TRPML1 agonist	D2 ag	Six1-Eya2 inh	PINK1 modulator	CtBP-E1A inh	TRPML1 blocker
Cc1ccc(-n2nc3cc(C)c(NC(=S)NC(=O)/C=C/c4ccco4)cc3n2)cc1	-0.4	-1.2	3	21%	1	40
CNc1ccc(C2(O)C(=O)c3ccccc3C2=O)cc1	0.3	-3.1	0	-0.7%	0	6
Cc1ccc(CN(C)C(=O)c2cc(S(=O)(=O)N3CCOCC3)ccc2F)o1	1.0	-0.4	6	0.8%	-18	-1
Cc1ccc(-c2csc3ncn(Cc4ccc(C(=O)O)cc4)c(=O)c23)cc1C	3.6	-0.7	-4	2.5%	-7	-2
CCCOc1ccc(Cc2c(O)nc(N)[nH]c2=O)cc1C	0.5	0.4	-5	-0.4%	/	-24
CS(=O)(=O)Cc1cccc(C(=O)NN(c2ccccc2)c2ccccc2)c1	-1.2	3.2	4	0.1%	14	-13

# Remaining list, next part.
SMILES,TRPML1 agonist,D2 ag,Six1-Eya2 inh,PINK1 modulator,CtBP-E1A inh,TRPML1 blocker
O=C(Cn1c(=O)oc2cc(S(=O)(=O)N3CCCCC3)ccc21)N1CCc2ccccc21,-0.2,-2.0,1,?,6,14
O=C(CCCOc1ccccc1)Nc1ccccc1C(F)(F)F,1.6,-5.0,2,4.3%,3,-10
NC(=O)C1CCN(C(=O)CSc2ncccn2)CC1,0.0,-2.2,-1,1.2%,10,-11
Cc1cccc(-n2ncc(C(=O)NCc3ccco3)c2C2CCN(C(=O)OC(C)(C)C)CC2)c1,0.4,/,/,2.1%,/,-4
COc1ccc(C)cc1N(CC(=O)Nc1ccc2c(c1)OCCO2)S(C)(=O)=O,1.4,-5.0,5,0.5%,/,11
CC(=O)C1C(c2ccccc2Cl)NC(=O)NC1(O)C(F)(F)F (stereo not drawn),-0.2,-5.5,1,0.5%,6,-1
CNC(=O)CC1C(=O)N(c2ccc(F)cc2)C(=S)N1NC(=O)c1ccc(Br)cc1 (stereo not drawn),0.0,-5.2,6,1.0%,/,2
CC(=O)CCc1ccc2oc(C(=O)O)c(C)c2c1,0.2,-0.1,1,0.7%,1,27
C[C@@H]1CN([C@@H](C)CO)C(=O)CCCn2nncc2CO[C@H]1CN(C)S(=O)(=O)c1ccccc1,1.5,-3.1,10,-0.8%,0,0
Cc1ccc(NC(=O)CCS(=O)(=O)c2cccc3nsnc23)c(C)c1,-0.1,/,/,-0.4%,/,-4
CC(C)NC(=O)N(C)C[C@H]1Oc2ccc(NS(=O)(=O)c3cccs3)cc2C(=O)N([C@H](C)CO)C[C@@H]1C,-0.9,-1.9,9,0.2%,1,-14

# Screens from PubChem.
